PrP UTR inh: inhibition of PrP 5' UTR reporter expression. inhibition, % (no concentration beside the values). cell-based PrP 5' UTR mRNA reporter, plate reader. 340,000 compounds, 0.35% hits;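 active means every replicate at 50% or more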;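 further: 0 = median of the neutral control wells; tested in H4 reporter cells; numbers are from one replicate; inactives centre near -14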
ugtP null kill: compounds lethal to S. aureus RN4220 ugtP deletion mutant. OD600 growth, 16 h; some inactives read as strong as hits. growth inhibition, % (no concentration beside the values). 330,000 compounds, 0.54% hits. AID 1259309;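 active means z-score under -3 and OD600 up to 0.15 on both plates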;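 further: plate controls were untreated wells for no effect and antibiotic for full effect; wells of about 80 µL received 100 nL stock; the first replicate is given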
Bead autofluor: compound fluorescence in toxin protease inhibitor counterscreen | 360,000 compounds, 3.1% hits | compound autofluorescence counterscreen, microsphere flow cytometry; stronger effect = higher value | fluorescence intensity (no concentration beside the values);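 active means at least 3 SD above the mean of all compounds, about 16000 in these data; inconclusive means too few beads counted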;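 further: 100 nL of 1 mM stock went into each well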
Mtb hypoxia rep: reduces hypoxia-regulated biosensor signal in M. tuberculosis; M. tuberculosis hypoxia-regulated fluorescent reporter, fluorescence; fluorescence inhibition, % (test concentration not listed); 300,000 compounds, 0.1% hits; AID 1159583;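 active means 35 to 45% if threefold the growth effect, above 45% if 1.5-fold the growth effect; inactive means the rest, general growth blockers included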;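 further: wells of about 50 µL received 100 nL stock; 0% = vehicle wells and 100% = reference inhibitor wells; whole bacteria with a GFP reporter of the hypoxia response; strong numbers were not always called active; many hits fall short of the cut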
BJeLR viability: BJeLR cell viability loss; BJeLR (HRASV12) viability, CellTiter-Glo ATP luminescence, 48 h; reference of the scale not given here; inhibition, % (no concentration beside the values); 300,000 compounds, 0.17% hits; AID 1554;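 active means replicate mean above 50%; inconclusive means above 50% but judged a plate artefact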;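 further: 50 nL library stock added to about 25 µL; numbers are from one replicate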
Sa RN4220 lethal: S. aureus RN4220 growth inhibition; inhibition, % (test concentration not listed); 330,000 compounds, 0.33% hits; AID 1259311; OD600, 16 h;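 active means z-score of -3 or lower and OD600 up to 0.18 on both plates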;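 further: plate controls were untreated cells for no effect and reference antibiotic for full effect; stock transfer was 100 nL into about 80 µL; one replicate is shown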
Mtb hypoxia rep growth: also measured in Mtb hypoxia rep; calls as there; growth inhibition, %; measured here: M. tuberculosis growth (absorbance);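 0% = vehicle and 100% = reference antibiotic; read after six days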
* marks the source's active call; other numbers are inactive results; ? = inconclusive; . = no result given.

No.	canonical_smiles	PrP UTR inh	ugtP null kill	Bead autofluor	Mtb hypoxia rep	Mtb hypoxia rep growth	BJeLR viability	Sa RN4220 lethal
1	COCCCNC(=O)Cn1cc(C(=O)c2cccs2)c2ccccc21	-25.0	-3.0	2804	11.4	3.6	4.2	4.5
2	Cc1onc(-c2c(F)cccc2Cl)c1C(=O)OCN1C(=O)c2ccccc2C1=O	-1.7	-4.0	3117	13.0	10.9	4.3	7.0
3	O=C(C1=C[C@H](C2CC2)C[C@H](OCc2ccc(CO)cc2)O1)N1CCN(Cc2ccccc2)CC1	7.2	.	3131	.	.	-0.6	.
4	COc1ccc(/C=N/Nc2ccc(C(F)(F)F)cc2[N+](=O)[O-])cc1	-21.7	.	1847	.	.	-1.5	.
5	COC(=O)c1cc(COC(=O)c2nc3nc(C)cc(C)n3n2)oc1C	-11.3	1.6	4515	9.7	7.7	-5.5	11.3
6	CCc1cc(=O)oc2cc(C)cc(OC(C)C(=O)NCCN3CCOCC3)c12 (configuration not stated)	-11.1	-1.6	5363	-1.0	-3.2	5.5	0.5
7	COC(=O)c1ccccc1NC(=O)CSc1nnc(Cc2ccc(Cl)cc2)o1	-8.9	4.9	19277*	8.6	10.0	7.4	8.1
8	COc1ccc(CCC(=O)Nc2cnc3ccccc3c2)cc1	-26.8	-5.8	4066	-2.8	1.5	-4.2	2.1
9	Cc1ccc(-n2cc3c(=O)n(C)c(=O)n(C)c3c2)cc1C	-39.6	-11.6	2432	.	.	-12.3	4.6
10	COc1ccccc1/C=C(/C(=O)OCC(N)=O)c1ccccc1	-21.1	11.5	3089	16.5	2.8	-16.9	1.5
11	c1ccc(Cn2nnc3c(NCc4ccc5c(c4)OCO5)ncnc32)cc1	-19.1	3.2	5876	-9.0	4.3	10.4	-4.5
12	CCCNS(=O)(=O)/C=C/c1ccccc1	-16.9	3.9	3314	-5.9	-4.5	-10.2	4.2
13	COc1ccc(NC(=O)C(CCS(C)(=O)=O)N2C(=O)c3ccccc3C2=O)cc1 (configuration not stated)	-23.1	-3.4	?	6.1	8.8	-10.1	-0.6
14	O=C1c2ccc(-c3ccc(F)cc3OCc3ccccc3)cc2S(=O)(=O)c2cccc(C(=O)N3CCN(c4ncc(Cl)cc4Cl)CC3)c21	-4.6	3.3	2976	2.2	-2.8	.	12.2
15	CCC(=O)N1CCc2cc(Br)cc(S(=O)(=O)C3(C(=O)OC)CC3)c21	-42.9	-0.8	2785	.	.	2.2	4.1
16	C#CCOCCOCCOCCNc1nc(N2CCN(C(=O)C(CCC(=O)O)n3cc(C(N)CC(C)C)nn3)CC2)nc(N2CCN(C(=O)C(Cc3cc4ccccc4[nH]3)n3cc(C(N)CC(C)C)nn3)CC2)n1 (configuration not stated)	.	-5.1	.	12.7	6.7	.	1.6
17	CC(C)CC(=O)NC(=S)Nc1sc2c(c1C(N)=O)CCC2	-46.0	0.5	4554	6.2	-1.5	4.6	-0.6
18	CC(C)CC(=O)N1CCN(Cc2cccc([N+](=O)[O-])c2)CC1	-8.4	2.9	3311	-5.8	1.0	-7.6	2.7
19	CSc1ccc(/C=C/C(=O)NC23CC4CC(CC(C4)C2)C3)cc1	-16.0	-12.4	1999	-5.9	1.0	5.3	-1.4
20	CN(C)C(=O)Oc1ccc2c(=O)c(Oc3ccccc3Br)coc2c1	-24.4	10.8	3784	4.3	10.4	-10.2	3.4

As entered above.
entry 20 – Sa RN4220 lethal = 3.4
entry 17 – Mtb hypoxia rep growth = -1.5
entry 11 – BJeLR viability = 10.4

(continued)
No.	canonical_smiles	PrP UTR inh	ugtP null kill	Bead autofluor	Mtb hypoxia rep	Mtb hypoxia rep growth	BJeLR viability	Sa RN4220 lethal
21	CC(=O)Nc1ccc(CN2CCN(CC(C)C)C(CCO)C2)cc1 (configuration not stated)	-2.2	0.8	4341	1.8	10.8	18.3	-2.0
22	COc1ccc(NC(=O)N2CCC(NC(=O)c3ccco3)CC2)cc1	-24.3	3.4	6871	8.4	4.3	7.3	1.0
23	Cc1ccccc1C=NNC(=O)c1cccnc1	.	2.3	.	15.0	-3.5	.	4.1
24	Cc1cccc(NS(=O)(=O)c2nnc(NC(=O)c3ccc(Cl)cc3)s2)c1	-43.8	22.8	5243	5.0	4.7	1.8	30.8
25	O=S1(=O)CC(O)C(N=Nc2c(O)n(Cc3ccccc3)c3ccccc23)C1 (configuration not stated)	-18.7	-5.3	4475	-1.9	18.2	-7.1	-0.3
26	O=C1N(C2CCCC2)C[C@@H]2C[C@@H](c3cccn3-c3nccs3)N3CCC[C@@]123	-19.2	3.4	3697	8.7	6.9	-2.4	-0.2
27	O=c1[nH]c(=S)[nH]nc1Cc1ccc(Cl)c(Cl)c1	-7.1	7.3	3113	11.8	0.4	11.3	13.5
28	Cn1c(=O)c(-c2ccccc2)c(O)c2ccccc21	-6.6	4.7	2045	18.7	29.5	-1.2	1.4
29	N#CC(=Nc1ccccc1)c1ccccc1	-23.3	5.0	?	0.4	2.0	.	5.3
30	Fc1ccc(C2CC(c3ccco3)=Nc3ccccc3S2)cc1 (configuration not stated)	-22.3	0.9	5667	23.3	21.2	-5.2	17.7

Reprinted at random: three records from the list.
No.	canonical_smiles	PrP UTR inh	ugtP null kill	Bead autofluor	Mtb hypoxia rep	Mtb hypoxia rep growth	BJeLR viability	Sa RN4220 lethal
13	COc1ccc(NC(=O)C(CCS(C)(=O)=O)N2C(=O)c3ccccc3C2=O)cc1 (configuration not stated)	-23.1	-3.4	?	6.1	8.8	-10.1	-0.6
15	CCC(=O)N1CCc2cc(Br)cc(S(=O)(=O)C3(C(=O)OC)CC3)c21	-42.9	-0.8	2785	.	.	2.2	4.1
30	Fc1ccc(C2CC(c3ccco3)=Nc3ccccc3S2)cc1 (configuration not stated)	-22.3	0.9	5667	23.3	21.2	-5.2	17.7

(more compounds)
No.	canonical_smiles	PrP UTR inh	ugtP null kill	Bead autofluor	Mtb hypoxia rep	Mtb hypoxia rep growth	BJeLR viability	Sa RN4220 lethal
31	CCn1cnc2sc(C(=O)N3CCN(Cc4ccc5c(c4)OCO5)CC3)c(C)c2c1=O	.	24.1	.	7.8	7.9	-7.1	-4.0
32	Cc1cc(Br)ccc1NC(=O)CNC(=O)CSc1n[nH]c(N)n1	-34.3	-0.2	3808	-3.5	-0.2	-7.2	-5.5
33	O=C(O)c1cccc(Cn2c(Cl)c(C=NNC(=O)c3ccccc3)sc2=O)c1	.	-1.3	.	16.4	9.4	.	4.8
34	Fc1ccc(CN(Cc2ccccc2)C(c2cccs2)c2nnnn2C2CCCCC2)cc1 (configuration not stated)	-11.4	-14.4	4817	.	.	7.1	0.8
35	COc1cc(C=NNc2nc(C)cc(C)n2)ccc1OC(=O)c1ccco1	.	-3.0	.	-15.5	-3.5	.	-4.5
36	Cc1cc(=O)[nH]c(NN=Cc2c(C)oc3ccccc23)n1	.	5.5	.	3.7	-4.5	.	0.9
37	Cc1nc(N2CCN(C(c3ccccc3)c3ccccc3)CC2)[nH]c(=O)c1C	-20.0	8.3	3825	3.4	8.6	-5.6	1.3
38	COC(=O)/C(=C/c1cccc([N+](=O)[O-])c1)NC(=O)c1ccc(OC)cc1	-14.9	2.3	2416	-6.0	5.2	0.8	3.4
39	CCc1ccc(OC)c(S(=O)(=O)Nc2ccc(Cc3ccncc3)cc2)c1	-27.3	13.8	6025	-2.0	9.1	22.9	-0.6
40	CC1CN(CC(O)COc2ccc(C(C)C)cc2)CC(C)O1 (configuration not stated)	3.8	1.9	4614	9.4	13.1	-1.9	2.1
41	O=C(Nc1ccccc1)C1=C(O)CC(c2ccoc2)CC1=Nc1ccccc1 (configuration not stated)	-23.9	2.4	7182	-11.5	-8.6	-1.4	-3.8
42	c1ccc2c3n(nc2c1)CCCCO3	11.8	3.5	3090	17.5	8.2	.	7.1
43	Cc1cnc(C(=O)OC(C)C(=O)Nc2ccc(Oc3ccccc3)cc2)cn1 (configuration not stated)	90.1*	5.1	?	-3.7	-0.4	.	1.6
44	CCCCC12CN3CCN(CC(C3)/C1=N\NC(=O)c1ccccc1N)C2	-2.8	.	6769	.	.	-3.1	.
45	CCOc1ccc(-c2c[n+](=O)c3c(n2[O-])CCCC3)c(OCC)c1	-10.8	9.7	19889*	0.8	0.1	-1.0	5.8
46	CC(=O)Nc1ccc(-n2c(C)ccc2-c2ccccc2)cc1	2.1	2.7	3312	-0.8	-10.6	-24.2	4.9
47	O=C(NN1C(=O)c2ccccc2NC1c1ccco1)c1ccc(Br)cc1 (configuration not stated)	-50.1	-1.7	4488	0.1	5.5	2.9	5.4
48	CCOCc1c(C(=O)OCC(=O)/C(C#N)=C(\C)N)oc2ccccc12	-11.7	-6.9	3273	-8.2	-10.3	.	4.6
49	O=[N+]([O-])c1cccc(CN2[C@@H](Cc3ccccc3)COCCS2(=O)=O)c1	-10.0	.	2605	.	.	0.9	.
50	CN(C)CC(C)(C)CNC(=O)C1CCN(CCCc2ccccc2)CC1	-3.6	1.1	4406	-0.6	4.5	5.1	2.4
51	Cc1ccc(N(Cc2ccc(C(=O)NCCSc3ccccn3)cc2)S(C)(=O)=O)cc1C	2.6	4.0	2014	5.9	7.5	4.9	0.7
52	C=CCNC(=O)c1ccccc1NC(=O)COc1ccc(OC)cc1	-16.1	0.1	2665	-1.4	6.9	1.0	0.7
53	CN(C(=O)CSc1nc2ccccc2c(=O)n1C)C1CCS(=O)(=O)C1 (configuration not stated)	-1.2	4.1	4000	8.6	8.4	.	5.5
54	CCC(=O)N1CCC2(CC1)Oc1ccc(F)cc1C(=O)C21CC(c2ccc(Cl)cc2)=NO1 (configuration not stated)	-4.1	2.7	3619	-7.6	4.5	5.7	4.2
55	COC(=O)c1ccc(-n2nnnc2SCC(=O)N2CCCCC2)cc1	-13.2	0.0	8564	1.4	-2.7	-11.2	0.7
56	Cc1[nH]nc2c1C(=NO)CCC2	.	3.9	.	8.6	-6.5	.	4.8
57	CN1CCN(c2ccc(Cl)cc2NC(=O)c2ccc(S(=O)(=O)N(C)C)cc2)CC1	-12.5	8.1	1950	.	.	12.8	3.4
58	OCCNCc1cc(Br)ccc1OCc1ccc(F)cc1	-4.7	-0.9	3836	7.9	6.9	-0.7	-0.3
59	CC(=O)C1=C(C)N(Cc2ccccc2)C(=O)N[C@@H]1c1cccc(C(F)(F)F)c1	-12.2	.	4308	.	.	2.1	.
60	C(=Cc1sc(Nc2ccccc2)n[n+]1-c1ccccc1)c1ccccc1	.	-14.4	.	10.1	12.1	.	5.9
61	CN(C)C(=O)CCc1ccc2c3c([nH]c2c1)[C@]1(C)[C@@H](C(=O)N2CCCCC2)C[C@H](CC(=O)NCCC2=CCCCC2)C(=O)N1CC3	-15.0	8.7	3458	-5.2	6.1	.	1.9
62	Cc1ccc(C(=O)C(C)Sc2nnc(N)s2)cc1 (configuration not stated)	-28.2	2.5	4479	-5.9	3.7	11.8	9.6
63	CC(C)(CNC(=O)c1ccc(Br)o1)N1CCOCC1	-9.4	2.3	6455	8.4	6.8	0.3	-1.1
64	Nc1nc(CSc2ncn(-c3ccccc3)n2)cs1	-92.5	-2.8	22447*	6.4	14.0	5.6	6.7
65	COC(=O)C1CN(C#N)N(c2ccc(Cl)cc2)C12c1ccccc1-c1ccccc12 (configuration not stated)	-2.2	96.4*	4628	10.9	8.9	83.9*	90.0*
66	CC1CCN(C(=O)c2ccc(NC(=O)c3ccccc3)cc2)CC1	-27.4	3.3	5314	3.8	3.9	3.3	2.8
